Six1-Eya2 inh: qHTS Assay for Inhibitors of the Six1/Eya2 Interaction | Homeobox protein SIX1 (Homo sapiens) + Protein phosphatase EYA2 (Homo sapiens), … | AlphaScreen GST-Six1/His-Eya2 binding, biochemical; hits give low values; control for the full effect not named in the record | activity change, % (test concentration not listed) | 360,000 compounds, 0.56% hits; in the data active = activity change below about -65%; inconclusive = about -30% to -65%; inactive = above about -30%; also: % is scaled to controls: 0 for no effect and ±100 for the full control effect
Target sequence (O00167 whole entry, looked up): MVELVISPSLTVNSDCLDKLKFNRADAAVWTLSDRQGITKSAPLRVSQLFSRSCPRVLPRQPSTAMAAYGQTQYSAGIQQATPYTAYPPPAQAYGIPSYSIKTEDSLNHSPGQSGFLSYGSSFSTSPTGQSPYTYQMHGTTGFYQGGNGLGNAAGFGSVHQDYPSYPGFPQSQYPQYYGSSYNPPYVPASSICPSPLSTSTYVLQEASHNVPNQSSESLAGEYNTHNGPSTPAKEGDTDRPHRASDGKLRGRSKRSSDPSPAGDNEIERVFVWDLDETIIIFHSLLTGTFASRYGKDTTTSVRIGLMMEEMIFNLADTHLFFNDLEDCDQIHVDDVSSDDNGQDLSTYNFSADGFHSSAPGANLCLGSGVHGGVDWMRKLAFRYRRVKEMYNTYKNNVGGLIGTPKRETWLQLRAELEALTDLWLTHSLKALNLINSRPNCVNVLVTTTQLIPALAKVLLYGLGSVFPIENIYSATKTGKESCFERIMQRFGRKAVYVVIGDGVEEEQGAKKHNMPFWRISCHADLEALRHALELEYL
Target sequence (Q15475 whole entry, looked up): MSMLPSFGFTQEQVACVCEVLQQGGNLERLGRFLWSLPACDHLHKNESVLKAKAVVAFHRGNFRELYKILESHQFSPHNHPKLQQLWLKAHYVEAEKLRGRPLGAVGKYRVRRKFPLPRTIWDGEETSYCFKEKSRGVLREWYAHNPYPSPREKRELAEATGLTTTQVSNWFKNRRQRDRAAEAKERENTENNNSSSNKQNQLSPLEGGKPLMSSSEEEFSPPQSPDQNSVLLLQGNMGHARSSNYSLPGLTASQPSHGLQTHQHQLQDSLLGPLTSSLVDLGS
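GST-Six1 + His-Eya2 (5X stock: 250/500 nM); Tris pH 8.0, 300 mM NaCl, 0.05% BSA, 0.02% Tween 20; GSH donor/Ni acceptor beads; 1 h 37 °C dark; AlphaScreen readout.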
CtBP-E1A inh: qHTS Assay for Inhibitors of the CtBP/E1A Interaction; AlphaScreen GST-E1A/His-CtBP binding, 1536-well; hits give low values; control for the full effect not named in the record; 340,000 compounds, 0.49% hits; CtBP / adenovirus E1A interaction (AlphaScreen); activity change, % (concentration not given with the values); in the data active means activity change below about -65%; inconclusive means about -30% to -65%; inactive means above about -30%; also: % is scaled to controls: 0 for no effect and ±100 for the full control effect
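AlphaScreen with 125 nM GST-E1A and 125 nM His-CtBP (5X stocks) in Tris pH 8.0, 300 mM NaCl, BSA, Tween 20, TCEP. Compounds preincubated 2 h at 37 deg C, then glutathione donor/nickel acceptor beads added for 1 h at 37 deg C in dark.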
D2 ag: Beta-Arrestin HTS for Positive Allosteric Modulators of the Human D2 Dopamine Receptor: Agonists; D(2) dopamine receptor (Homo sapiens), P14416; activation, % (no concentration beside the values); 360,000 compounds, 0.084% hits; AID 624465, 2012; DiscoveRx PathHunter D2 beta-arrestin, luminescence, 90 min; 100% = 57 uM dopamine signal; in the data active = activation above about 40%; inconclusive = about 15% to 40%; inactive = below about 15%; also: compound concentration not given in the record; the text of the record calls up to 30% inactive
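Agonist mode: compounds alone added to overnight-plated D2 PathHunter cells for 90 min at 37 C, with 57 uM final dopamine (EC100) defining full response. Beta-arrestin recruitment detected by chemiluminescent reagent, read after 1 h at ambient temperature.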
TRPML1 ag: qHTS for Agonists of the Human Mucolipin Transient Receptor Potential 1 (TRPML1); Mucolipin-1 (Homo sapiens), Q9GZU1; TRPML1-expressing cells, Ca2+ dye fluorescence, FDSS; host cell line not named in the record; reference of the full effect not given here; activation, % (test concentration not listed); 410,000 compounds, 0.12% hits; AID 624414, 2012; in the data active = activation above about 50%; inconclusive = about 30% to 50%; inactive = below about 30%; also: 0% is about no effect; the text of the record puts the active cut at 80%
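TRPML1-DL cells, Tet-induced overnight (~16 h, 37 degrees C), loaded 45-90 min at room temperature with Ca8 no-wash calcium dye plus quencher. FDSS fluorescence: 10 s baseline, compound pin-transfer, 110 s agonist read, then EC80 54-4 (4uM final) and 110 s antagonist read.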
D2 PAM: Beta-Arrestin HTS for Positive Allosteric Modulators of the Human D2 Dopamine Receptor: Potentiators; AID 624464, 2012; DiscoveRx D2 beta-arrestin cells, luminescence, 90 min; 100% = 57 uM dopamine signal; potentiation, % (test concentration not listed); 360,000 compounds, 0.23% hits; active = potentiation of 50% or more; inconclusive = 30% to 50%; inactive = 30% or less;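 also: compound concentration not given in the record; tested on top of an EC20 dose of dopamine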
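D2 cells co-treated with compound plus 50 nM dopamine (EC20) for 90 min at 37 deg C to detect potentiation. Beta-arrestin recruitment was read as enzyme-fragment luminescence after 1 h at ambient temperature. Full response was set by 57 uM dopamine.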
PINK1 expr mod: A Quantitative High throughput Screen to Identify Chemical Modulators of PINK1 Expression; 410,000 compounds, 0.2% hits; PINK1 immunofluorescence, high-content cytometry, 24 h; Potency, µM (series often up to 76.6 µM), inactives show top-dose activation (PINK1 increase), hits mostly activators; active = well fitted activation curve with a large enough effect; inconclusive = small, poorly fitted or top-dose-only effect; inactive = flat fitted curve, though single readings scatter; cell line not stated here;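 also: potency is read from the fitted curve at half-maximal effect; % of control where 0% means no effect; nearly all actives have a fitted effect of over 65% in size; a mitochondrial uncoupler was the plate control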
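Measures PINK1 amount and localization on or inside mitochondria by immunofluorescence. Stable cells get compounds at 5 concentrations for 24 hours before fixation and staining; CCCP controls included.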
* = called active by the depositor; ? = inconclusive; / = not tested or not shown; [ ] = another dose, or the depositor's remark.

Every second line gives: Six1-Eya2 inh	CtBP-E1A inh	D2 ag	TRPML1 ag	D2 PAM	PINK1 expr mod
1) CCN(CC)c1ccc(/C=N/NC(=O)CNC(=O)c2ccc3c(c2)OCCO3)cc1
 : ?	0	-8.3	0.2	-18	-0.4%
2) CCOC(=O)N1CCC(Nc2ncnc3c2cnn3-c2ccc(C)cc2C)CC1
 : -3	0	14	-0.1	-1	0.4%
3) CCN(C(=O)CN1C(=O)c2ccccc2S1(=O)=O)C1CCCCC1
 : 7	-3	-0.3	-0.4	2	6.3%
4) Cc1ccc(S(=O)(=O)NC(N)=NCCc2ccc(Cl)cc2)cc1
 : -1	3	1.9	1.2	0	-1.4%
5) O=C(NC1=NCCS1)c1ccc(Cl)c(S(=O)(=O)N2CCOCC2)c1
 : -1	/	-3.1	1.5	0	0.1%
6) Cc1nn(C)cc1C(=O)Nc1cc(Oc2ccc(Cl)cc2)cc([N+](=O)[O-])c1
 : 1	2	0.9	1.1	-3	?
7) Cc1cccc(NC(=O)NNC(=O)c2ccc3ccccc3c2O)c1
 : 0	0	0.4	-0.7	-9	-1.2%
8) CCOC(=O)N1CCN(C(=O)c2cc3ccc(OC)cc3[nH]2)CC1
 : -5	3	-4.0	-0.5	1	1.6%
9) O=C(CCN1C(=O)COc2ccccc21)NCCCN1CCCC1
 : 9	-5	0.0	-0.2	-22	-1.4%
10) C=CCn1c(O)c(N=NC(=O)CNC(=O)/C=C/c2ccco2)c2ccccc21
 : -12	-6	-2.3	0.3	-21	-3.6%[38.3 µM]
11) COc1ccc(C(CNC(=O)c2sccc2C)N2CCOCC2)cc1 (stereo not drawn)
 : -2	7	-5.1	-0.2	-21	2.3%
12) COc1ccc(-n2ncc(N(C)n3cccc3)c(Cl)c2=O)cc1
 : -8	1	-3.0	3.5	-14	0.0%
13) S=C(NCc1cccs1)Nc1ccc(Cl)cc1
 : -3	-1	0.3	-0.9	4	2.8%
14) COc1ccc(Cl)cc1NC(=O)Cn1c(NCCO)nc2ccccc21
 : 2	-1	-6.5	-0.3	-35	3.2%
15) CCc1noc(C)c1C(=O)Nc1cc(S(=O)(=O)N2CCCCC2)ccc1N(C)C
 : 0	-3	-1.8	0.0	-17	3.9%
16) Clc1ccc(OCCN2CCOCC2)cc1
 : 1	8	-4.4	0.1	-6	-0.7%
17) CC1CCc2sc(C(=O)NC(C)C3CCCO3)cc2C1 (stereo not drawn)
 : 3	9	1.2	1.7	-11	-0.4%
18) Cc1cccc(-c2oc3ccccc3c2-c2ccc3c(c2)OCO3)c1
 : 1	10	-6.0	-0.6	-6	14%
19) CCCN(CC(=O)Nc1ccccc1C)C(=O)C1CC(=O)N(c2ccccc2OCC)C1 (stereo not drawn)
 : 9	2	-1.9	0.2	-2	1.6%
20) S=c1c2[nH]cnc2ncn1CCSc1ncnc2nc[nH]c12
 : -2	7	-10	-0.5	-24	4.4%
21) CCOc1c(OC)cccc1C1CC(=O)Nc2cc3c(cc21)OCCO3 (stereo not drawn)
 : -10	-3	-1.1	1.3	4	2.3%
22) Cc1ccc(C)c(CN2C(=O)c3ccccc3S(=O)c3ccc(C(=O)NCCCN4CCCC4)cc32)c1 (stereo not drawn)
 : -6	-7	1.8	1.1	-24	-0.4%
23) S=C(c1ccc(Br)cc1)N1CCN(Cc2ccccc2)CC1
 : -23	-22	-2.2	2.7	-21	3.2%[38.3 µM]
24) Cc1cc(-n2c(C)cc(C(=O)COc3ccc(F)c(F)c3)c2C)no1
 : -6	1	9.3	4.2	0	1.2%
25) CCCCN(c1ccccc1)c1ncnc2nc[nH]c12
 : 1	3	-4.4	-1.1	-2	1.1%
26) CCOc1ccc(C(Nc2ccc(C)cc2)P2(=O)OCC(C)(C)CO2)cc1 (stereo not drawn)
 : 0	-4	-2.0	0.7	-3	-1.0%
27) NC(=O)CC(NC(=O)c1ccccc1)c1ccc(N2CCN(c3ccccc3)CC2)c([N+](=O)[O-])c1 (stereo not drawn)
 : -10	-4	-3.2	-0.4	-13	4.0%
28) CC(C)N1CC2(CC(c3ccccc3F)=NO2)CN1C(=O)c1ccc(C(C)(C)C)cc1 (stereo not drawn)
 : -8	0	-4.1	1.1	-14	?
29) CC1CCCN(c2ncnc3c2cnn3-c2ccccc2)C1 (stereo not drawn)
 : 27	0	3.7	-0.1	2	5.8%
30) N#Cc1c2n(c3c(=O)n(Cc4ccccc4Cl)cnc13)CCCC2
 : 2	-2	-1.0	0.2	-2	27%[38.3 µM]
31) CNc1ncc(C(=O)c2ccccc2)s1
 : 4	8	-0.1	-0.6	-6	0.1%[38.3 µM]
32) COc1ccc(C2CC(c3ccccc3OC(C)=O)=NN2C(=O)/C=C/c2ccccc2)cc1OC (stereo not drawn)
 : -16	-20	-2.5	-0.1	-12	-1.1%
33) CCOC(=O)C1CCN(C(=O)C(=O)Nc2ccc3nc4n(c(=O)c3c2)CCCCC4)CC1
 : -4	2	-5.2	-0.2	-3	0.3%
34) CC1CCCC(NC(=O)COC(=O)/C=C/c2ccc([N+](=O)[O-])cc2)C1C (stereo not drawn)
 : 4	-2	0.9	2.4	9	1.5%
35) Cc1cc(C)n(CCc2nc(-c3ccco3)cs2)n1
 : -13	-4	-4.3	-0.4	-3	4.9%[38.3 µM]
36) CCn1c(Cn2nnc(-c3ccccc3)n2)nnc1SCC(=O)N1CCOCC1
 : 1	1	0.5	-0.2	1	-7.6%[38.3 µM]
37) O=S(=O)(c1cccc(NC(=S)Nc2ccc(Br)cc2Cl)c1)N1CCOCC1
 : -1	0	-7.5	0.1	-22	24%
38) COC(=O)N/N=C/c1cc(N=Nc2ccccc2Cl)ccc1O
 : -7	-4	-7.5	0.4	-19	2.6%
39) COc1ccc(NC(=O)Cc2ccc(C)c(C)c2)cc1Cl
 : 12	7	-1.6	2.3	-2	0.5%
40) O=C(NC1CCCC1)C(c1ccccn1)N(C(=O)c1csnn1)C1CCCC1 (stereo not drawn)
 : 4	-5	-1.0	-0.4	-5	-0.7%
41) O=C(Nc1ccccc1C(=O)N1CCOCC1)c1ccc([N+](=O)[O-])cc1
 : 2	7	-1.3	0.1	1	1.3%
42) O=C(CSc1ccc(F)cc1)NC1CCCCC1
 : 1	9	-3.8	0.5	-2	-1.0%
43) COc1cc(OC)c2c(-c3cccc(-c4ccc(C(F)(F)F)cc4)c3)cc(=O)oc2c1
 : 0	2	-0.7	-0.2	/	2.4%
44) COc1ccc(S(=O)(=O)N2CCN(C)CC2)c(C)c1
 : 8	-3	-5.9	0.8	-3	-0.1%
45) CNC(=O)c1ccccc1S(=O)(=O)c1ccccc1C#N
 : 8	7	-0.8	0.1	-18	-1.9%
46) CCC(=O)N1Cc2cc(C(=O)NCCOC)nc(-c3cccc(-c4ccc(C#N)cc4)c3)c2[C@H]1CCO
 : -8	4	/	-0.5	/	1.1%
47) CCOCCCNC(=O)C1CCN(S(=O)(=O)N2CC(C)CC(C)C2)CC1 (stereo not drawn)
 : -3	-14	-3.2	-0.3	-7	1.1%[38.3 µM]
48) Cc1ccc(-n2c(Cc3cccn3C)nnc2SCC(=O)N2CCN(c3ccccc3)CC2)cc1
 : -29	?	0.0	-0.6	-6	6.6%[38.3 µM]
49) COC1CCCN(C(=O)c2ccc(OC3CCN(S(=O)(=O)N(C)C)CC3)cc2)C1 (stereo not drawn)
 : 5	3	-3.1	-0.3	8	-1.7%
50) COCCNC(=O)c1onc(CSc2ccccc2F)c1C(=O)O
 : 2	7	-1.8	-0.3	-13	0.0%

2 entries from above, as a markdown table:
| no. | SMILES | Six1-Eya2 inh | CtBP-E1A inh | D2 ag | TRPML1 ag | D2 PAM | PINK1 expr mod |
| --- | --- | --- | --- | --- | --- | --- | --- |
| 30 | N#Cc1c2n(c3c(=O)n(Cc4ccccc4Cl)cnc13)CCCC2 | 2 | -2 | -1.0 | 0.2 | -2 | 27%[38.3 µM] |
| 31 | CNc1ncc(C(=O)c2ccccc2)s1 | 4 | 8 | -0.1 | -0.6 | -6 | 0.1%[38.3 µM] |

Other entries:
Every second line gives: Six1-Eya2 inh	CtBP-E1A inh	D2 ag	TRPML1 ag	D2 PAM	PINK1 expr mod
51) CC(Cc1ccccc1)N/C=C1\CC(=O)NC1=O (stereo not drawn)
 : -13	1	0.3	-0.2	2	5.2%
52) Cc1c(/C(O)=C2/C(=O)C(=O)N(Cc3cccnc3)C2c2ccccn2)cnn1-c1ccccc1 (stereo not drawn)
 : -17	-20	-3.0	-0.5	-5	0.5%
53) COc1ccc(NC(=O)CC23CC4CC(CC(C4)C2)C3)cn1
 : 0	-1	-0.6	0.7	0	0.7%
54) COc1ccc(NC(=S)SC)cc1OC
 : 4	/	-3.2	0.5	-2	6.2%
55) CC1CCN(Cc2c(C(=O)N/N=C/c3ccc(C(F)(F)F)cc3)nnn2-c2nonc2N)CC1
 : -3	6	7.9	2.3	-3	1.3%
56) COc1ccc(/C=C2/C(=O)N(c3ccccc3)N=C2C)cc1Br
 : 7	12	-7.0	0.9	-9	4.5%
57) CN(C)S(=O)(=O)c1ccc(C(=O)NCCN=C2NS(=O)(=O)c3ccccc32)cc1
 : -4	-1	-2.1	0.7	-8	1.5%
58) CCCc1cc(=O)oc2c(CN(CC)CC)c(O)c(Cl)cc12
 : 4	7	1.4	-1.1	-6	3.1%
59) COc1ccc(/C=C2\SC(=O)N(CCNC(=O)C3CC4C=CC3C4)C2=O)cc1 (stereo not drawn)
 : -14	0	0.9	-0.9	7	1.8%
60) C=CCOc1ccc(/C=C/C(=O)N2CCCN(S(=O)(=O)c3c(C)noc3C)CC2)cc1
 : 3	2	5.8	-0.4	4	0.0%
61) C[C@@H](CO)NC(=O)c1ccc2c3n(nc2c1)-c1ccccc1CO3
 : 2	5	2.5	-0.4	-14	1.1%
62) O=C(CSc1ccc(Cl)cc1)NCC1CCCO1 (stereo not drawn)
 : -2	0	-2.2	1.3	-19	0.6%
63) COc1ccc(C2C3=C(CC(C)(C)CC3=O)Nc3cc4c(cc32)OCO4)cc1 (stereo not drawn)
 : -1	5	-6.4	0.4	-10	0.5%
